# Ecoli growth: blocks Escherichia coli growth; OD600, 23 h; stronger effect = lower value; OD600 absorbance (test concentration not listed); actives 0.21% (n = 330,000);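 active = OD600 absorbance below the run mean of sample wells minus 3.6 SD, in any replicate, cut at about 0.56 in these data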;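 note: stock transfer was 300 nL into about 60 µL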
# HNF4A DNA FP: change in binding of human HNF4 alpha to DNA. P41235. HNF4a-FITC DNA binding, fluorescence polarization, 1 h. activity change, % at 10 µM. actives 0.3% (n = 360,000). AID 1224865; in the data active = activity change above about 30%, passing the limit was not always enough;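 note: controls were the assay level and a saturating level of protein; the project sought stronger binding though the title names inhibitors; some compounds called inactive have numbers as strong as hits; positive values seem to mean higher polarization but the record does not say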
# Target sequence (P41235 whole entry, looked up): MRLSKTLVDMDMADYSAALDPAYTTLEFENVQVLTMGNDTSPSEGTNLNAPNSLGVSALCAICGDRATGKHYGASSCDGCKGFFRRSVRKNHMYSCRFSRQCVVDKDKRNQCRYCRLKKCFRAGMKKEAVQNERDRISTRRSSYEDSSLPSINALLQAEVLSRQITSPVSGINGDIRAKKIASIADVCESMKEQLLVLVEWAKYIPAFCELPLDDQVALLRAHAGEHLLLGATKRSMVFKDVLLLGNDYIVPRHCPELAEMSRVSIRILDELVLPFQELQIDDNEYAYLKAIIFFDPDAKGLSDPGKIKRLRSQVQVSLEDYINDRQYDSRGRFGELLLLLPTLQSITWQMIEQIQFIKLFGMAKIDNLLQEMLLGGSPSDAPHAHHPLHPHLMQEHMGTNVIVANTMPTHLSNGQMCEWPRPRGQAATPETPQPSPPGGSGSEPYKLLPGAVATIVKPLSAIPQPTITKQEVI
# RanGTP-Impb inh: inhibitors of RanGTP-importin-beta interaction, primary screen, biochemical, FRET, CFP-Ran, YFP-importin-beta, homogeneous. actives 1.1% (n = 300,000). cell-free CFP-Ran/YFP-importin-beta FRET ratio. inhibition, % (concentration not given with the values);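 active = most replicates above 15%; inconclusive = exactly half above 15%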;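 note: 0% = DMSO wells and 100% = Ran loaded with GDP instead of GTP; wells of about 40 µL received 100 nL stock; the first replicate is given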
# Vif TR-FRET: inhibitors of Vif binding to APOBEC3G peptide, primary screen, biochemical, TR-FRET, GST-Vif 1-94, biotin-A3G peptide, dose response retest (AID 1117319). inhibition, %; hits with a dose series show IC50 in µM. TR-FRET GST-Vif / biotin-A3G peptide binding; higher % means a stronger effect; test concentration not given here; strong numbers were not always called active. actives 0.57% (n = 260,000);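 active = above the screen mean plus three standard deviations and confirmed in dose response; inconclusive = results disagree or hit not tested in dose response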;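 note: Vif residues 1-94 fused to GST binding biotinylated APOBEC3G peptide 110-148; 0% = full assay without inhibitor and 100% = GST in place of GST-Vif; retest series ran down from 100 µM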
# UCH37 DUB inh: human UCH37 deubiquitinating enzyme inhibition. AID 588478. actives 0.33% (n = 330,000). purified proteasome/UCH37, Ub-AMC cleavage fluorescence. inhibition, % (no concentration beside the values). Q9Y5K5;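 active = mean of two replicates above 20%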;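 note: 0% = compound-free wells with enzyme and 100% = wells lacking proteasome; stock transfer was 100 nL into about 20 µL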
# Target sequence (Q9Y5K5 whole entry, looked up): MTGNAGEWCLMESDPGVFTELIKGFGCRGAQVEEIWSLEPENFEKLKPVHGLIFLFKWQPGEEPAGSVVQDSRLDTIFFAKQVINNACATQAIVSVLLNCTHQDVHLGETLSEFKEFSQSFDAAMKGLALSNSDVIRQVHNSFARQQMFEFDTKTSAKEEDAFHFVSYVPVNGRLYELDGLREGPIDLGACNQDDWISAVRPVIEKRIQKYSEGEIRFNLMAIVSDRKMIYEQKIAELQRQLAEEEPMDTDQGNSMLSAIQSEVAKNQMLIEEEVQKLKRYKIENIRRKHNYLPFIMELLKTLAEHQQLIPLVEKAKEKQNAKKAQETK
#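 Schedule: 30 min plus 25 min, room temperature / Material: human UCH37 within purified proteasomes / Technique: AMC fluorescence intensity at 355/460 nm / Buffer or medium: pH 7.4 Tris-HCl (50 mM) with ovalbumin, ATP-MgCl2, DTT / Controls: wells without proteasome as full block, compound-free enzyme plus substrate as uninhibited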
# FGF22 binding: FGF22 (human) thermal shift binding. Q9HCT0. recombinant FGF22 thermal shift, SYPRO orange fluorescence; percent of sucrose octasulfate shift, DMSO zero. calls only at 9.99 µM. actives 1.5% (n = 340,000);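 active = melting point raised past a set limit in the mean and every replicate; inconclusive = no clear call; three in four hits are not shown here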
# Target sequence (Q9HCT0 whole entry, looked up): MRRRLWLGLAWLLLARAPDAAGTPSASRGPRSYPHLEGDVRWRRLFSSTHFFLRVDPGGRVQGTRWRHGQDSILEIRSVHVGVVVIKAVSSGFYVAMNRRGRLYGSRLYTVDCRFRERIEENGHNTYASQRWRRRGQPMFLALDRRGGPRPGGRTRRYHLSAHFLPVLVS
# MLL AF4-AF9 inh: MLL-AF4/AF9 protein interaction inhibition; P42568; AlphaScreen, biotin-AF4 peptide binding to FLAG-AF9; inhibition, % at 10 µM; actives 0.47% (n = 350,000); AID 651704;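 active = every replicate reaching a set inhibition limit, whatever the replicate mean, cut at about 25% in these data; inconclusive = mean inhibition reaches that limit but some replicates miss it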;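 note: 0% = plate neutral control median and 100% = total signal loss; the record names both 10 and 1 µM as test concentration; the first replicate is given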
# Numbers without * were called inactive; i = inactive; ? = inconclusive; · = no result given.
SMILES,Ecoli growth,HNF4A DNA FP,RanGTP-Impb inh,Vif TR-FRET,UCH37 DUB inh,FGF22 binding,MLL AF4-AF9 inh
C=CC[C@@H](CC(=O)N[C@H](CO)Cc1ccccc1)C(=O)N[C@@H](COC(=O)[C@H](CC=C)CC(=O)OC(C)(C)C)Cc1ccccc1,·,-4.7,·,·,1.5,i,-2.5
COc1cc(NCCCC(C)N)c2ncccc2c1 (centres undefined),0.694,5.0,-2.7,?,-1.4,·,·
CCOC(=O)N1CCN(C(=O)C2CCC(=O)N(Cc3ccc(Cl)cc3)C2)CC1 (centres undefined),0.702,2.1,-1.7,·,-1.7,i,-0.4
CCS(=O)(=O)c1ccc(O)c(NC(=O)COc2ccc(Br)cc2)c1,0.641,1.4,5.0,·,2.0,·,-0.5
O=C(CCCCl)Oc1ccc2cc(-c3ccc4ccccc4n3)c(=O)oc2c1,0.716,17.8,101.6*,0.8%,-41.3,i,-0.7
O=[N+]([O-])c1ccc(N=Cc2sc3ccccc3c2O)cc1,0.719,5.0,37.1*,-6.3%,-2.6,i,2.6
Cc1cccc(OCC(=O)NCCNC(=O)c2cnccn2)c1,0.668,-1.6,2.0,·,0.2,i,0.5
Cc1ccc(-n2sc3cc(F)ccc3c2=O)c(C)c1,·,-1.9,·,8.4%,·,i,-11.3
Cc1ccc(-n2cccc2C(=O)NS(=O)(=O)c2ccc(C)cc2)cc1,0.698,-5.0,6.6,-2.3%,0.3,i,-3.8
CCOc1cccc(C(=O)N(Cc2ccc(F)cc2)C2CCS(=O)(=O)C2)c1 (centres undefined),0.647,-6.0,3.1,-0.1%,2.5,i,3.6
O=C(NCCN1CCC(n2c(=O)[nH]c3ccccc32)CC1)c1ccccc1C(F)(F)F,·,0.9,·,·,·,i,-3.8
COCC(=O)N1CCC(Oc2ccc(C(=O)N3CCCCCC3)cc2)CC1,0.734,3.8,-1.1,·,1.1,i,-1.0
C=CCOc1c(Br)cc(CNn2cn[nH]c2=S)cc1OC,0.696,0.7,-0.3,3.5%,4.2,i,-7.5
Fc1cccc(Cl)c1Cn1nnc2c(N3CCC4(CC3)OCCO4)ncnc21,0.763,3.3,3.3,-12.4%,1.4,·,·
O=C(NCc1cccnc1)c1ccc(Br)s1,0.692,5.5,4.3,6.5%,1.8,i,0.7
COC(=O)c1ccccc1NC(=O)C(C)Oc1ccccc1 (centres undefined),0.687,0.2,·,67.7%,1.4,·,·
O=C1NC(=O)/C(=C\c2ccc(Oc3ccc([N+](=O)[O-])cn3)cc2)S1,0.669,4.9,-3.4,·,11.5,·,·
O=C1NC(=Nc2ccc(Cl)cc2)/C(=C/c2ccco2)S1,0.714,-14.5,-0.4,?,6.8,i,-0.7
Cc1ccc(S(=O)(=O)N2CCN(C(=O)CN(Cc3ccco3)Cc3cccs3)CC2)cc1,·,-1.6,·,·,·,i,-0.2
Cc1onc(-c2ccc(Cl)cc2Cl)c1-c1csc(N/N=C/c2ccccc2Cl)n1,·,5.6,-4.6,26.7%,·,i,-0.5
C1=CC2CCC1ON2c1ccccc1 (centres undefined),0.656,-2.9,-3.8,?,2.2,·,·
COc1ccc(CCNC(=O)COC(=O)c2cccs2)cc1,0.697,-0.5,·,-11.1%,3.0,i,-18.9
CCCCC(=O)Nc1c2c(nn1-c1ccc([N+](=O)[O-])cc1)CS(=O)(=O)C2,0.622,1.4,0.1,4.5%,2.8,i,-2.7
COc1ccccc1Oc1ccccc1[N+](=O)[O-],0.639,-0.7,4.2,8.0%,4.9,i,6.8
CS(=O)(=O)N1CCC(C(=O)NCc2ccc(Cl)cc2Cl)CC1,0.664,-0.5,2.3,-2.2%,2.8,·,-6.9
CC1=C(C(=O)Nc2ccccc2)C(c2ccc(O)cc2)N2C(=O)CSC2=N1 (centres undefined),0.73,-0.5,?,8.1%,5.2,·,·
COc1ccc(N2C(c3ccsc3)=Cc3cc4c(cc3C2c2c[nH]c3ccccc23)OCO4)cc1 (centres undefined),·,0.3,·,·,·,i,4.5
NCC(=O)CCC(=O)O,0.69,2.0,0.8,·,-1.5,i,?
O=C(CCSc1ccc(F)cc1)NNC(=O)c1ccc([N+](=O)[O-])cc1,0.672,-1.8,·,-12.1%,1.5,i,-4.4
CC(=O)c1c(C)[n+]([O-])c2ccc3c(non3O)c12,0.64,2.1,-1.3,·,3.6,i,-0.9
O=C(NCC(=O)N1CCC2(CC1)NCCc1[nH]cnc12)c1ccccc1F,0.706,-2.5,-4.7,2.2%,5.3,i,-1.6
CCN1CCCC1CN(Cc1cc2ccc(C)cc2[nH]c1=O)C(=S)Nc1ccccc1C(=O)OC (centres undefined),0.668,-0.7,4.7,2.5%,3.4,i,0.4
Cc1ccc(CNC(=O)CC2C(=O)Nc3c2c(=O)n(C)c(=O)n3Cc2ccccc2)cc1 (centres undefined),0.682,-0.4,6.7,-4.1%,-0.3,·,·
O=C(NCc1ccco1)C1CCN(Cc2ccc(F)cc2)CC1,0.698,0.4,-1.5,4.2%,2.4,·,·
COCc1nnc(NC(=O)CS(=O)(=O)Cc2ccccc2)s1,0.714,5.6,3.7,3.7%,3.2,·,·
Fc1ccccc1-c1nc(NCCCN2CCOCC2)c2ccccc2n1,0.622,-0.4,1.9,-6.3%,3.3,i,1.3
Cc1ccc(S(=O)(=O)c2ccc(Cl)cc2)cc1S(=O)(=O)N1CCN(C)CC1,0.665,1.6,-1.3,28.4%,3.9,i,9.6
COc1cccc(COC(=O)c2c(C)nn(-c3ccccc3)c2Cl)c1OC,0.715,-3.3,-1.4,·,1.6,i,-0.6
CCc1cc(=O)oc2cc(OCC(=O)NCC3CCC(C(=O)O)CC3)ccc12 (centres undefined),0.728,5.0,?,·,-11.6,i,-1.5
COc1ccc(CC(=O)Nc2ccc(S(=O)(=O)N3CCC(C)CC3)cc2)c(OC)c1,0.721,1.8,·,-15.3%,1.7,i,-4.1
O=S(=O)(Nc1ccon1)c1cc(Cl)ccc1Cl,0.663,3.8,1.1,·,3.5,i,-5.7
CCOc1ccc(NC(=O)c2ccc(CNc3c(NC4CCCCC4)c(=O)c3=O)cc2)cc1,0.772,0.4,-3.4,-2.7%,0.8,i,0.4
COc1ccc(CNC(=O)c2sc(=O)n(Cc3ccc(C)cc3)c2C)cc1OC,·,0.9,·,·,·,i,7.5
CN(C)S(=O)(=O)c1ccc(C(=O)Nc2nnc(Cc3ccccc3)s2)cc1,0.781,1.4,6.3,-2.0%,1.9,·,·
CC(OC(=O)C(NC(=O)c1ccco1)C(C)C)C(=O)Nc1ncc(Cl)cc1Cl (centres undefined),0.73,0.7,-3.2,-3.6%,-3.5,·,·
O=C(NCCSc1ncc(-c2ccc(F)cc2)[nH]1)c1ccc2c(c1)OCO2,0.664,-2.1,2.3,·,3.2,i,-6.8
O=C(O)C1CCCCC1C(=O)Nc1cc(Cl)ccc1Cl (centres undefined),0.67,·,-0.8,-3.4%,3.5,·,·
O=C(Nc1ccc2c(c1)CCC2)c1ccc(F)c(S(=O)(=O)N2CCOCC2)c1,0.691,-2.5,1.2,·,7.6,·,·
O=C(O)C1CC=CCC1C(=O)Nc1cccc([N+](=O)[O-])c1 (centres undefined),0.649,1.0,1.1,-2.6%,0.6,i,2.3
Cc1nn(C(C)(C)C)c(OC(=O)c2ccc3c(c2)OCO3)c1Sc1ccccc1,0.715,0.9,1.0,3.3%,5.7,·,·
Cc1ccc(S(=O)(=O)Cc2ccc(C(=O)NC3CCCCCC3)o2)cc1,0.699,2.1,0.1,7.1%,0.6,i,-5.1
Cc1cccc(C)c1OCc1cc(C(=O)N(Cc2c(C)nn(C)c2C)C2CC2)no1,0.651,0.2,-1.1,·,1.3,i,0.4
O=C(CN1CCOc2ccccc21)NCc1cccs1,0.611,2.1,3.2,3.4%,1.4,·,·
CC(C)C[C@H](NC(=O)OC(C)(C)C)C(=O)N/N=C/C1=Cc2ccccc2OC1C (some centres undefined),·,-5.6,4.2,0.0%,·,·,·
CCCCC[C@@H](C)N1C[C@H](COCc2ccccc2)Oc2cc(N3CC[C@H](O)C3)ccc2S1(=O)=O,·,4.6,·,·,·,i,-1.7
CC(=O)Nc1ccc(NCC(=O)c2ccccc2)cc1,·,2.9,1.7,·,·,i,1.5
COc1cccc(NC(=O)c2ccc(NC(=O)C(C)(C)C)cc2)c1,0.635,-3.0,2.3,0.6%,1.5,i,2.7
Cc1ccc(S(=O)(=O)n2c(N)nc3ccccc32)cc1,0.691,0.6,-3.7,·,3.7,i,-0.8
Cc1noc(C)c1C(=O)OCC(=O)NC(c1ccccc1)c1ccccc1,0.688,-0.3,4.3,3.9%,0.1,·,·
O=C(Nc1ccnn1C1CCN(C(=O)CCc2ccc(F)cc2)CC1)C1CCOC1 (centres undefined),0.695,1.4,4.1,-1.4%,-0.3,i,-1.1
# (more compounds)
SMILES,Ecoli growth,HNF4A DNA FP,RanGTP-Impb inh,Vif TR-FRET,UCH37 DUB inh,FGF22 binding,MLL AF4-AF9 inh
CCOc1cc(S(=O)(=O)NCc2ccncc2)c(C)cc1C,0.637,0.1,-2.3,?,-1.7,i,0.1
CSc1nsc(SC)c1C(=O)O,0.707,-0.6,?,?,4.5,i,-9.8
CC(=O)Nc1ccc(S(=O)(=O)NCCC(=O)OCC(=O)c2ccccc2)cc1,0.616,1.9,3.1,-0.1%,1.3,·,-1.8
COc1ccc(-c2ncccc2OC(=O)C23CC4CC(CC(C4)C2)C3)cc1OC,0.662,0.3,-3.4,·,-26.8,i,0.5
CC1=CC(=C(C#N)C#N)C=C(C)N1CCC(C)C,0.677,-1.1,2.0,-18.7%,7.8,i,1.3
CCCn1cnc2c(cnn2-c2ccc(F)cc2)c1=O,0.695,-3.1,7.7,29.4%,-0.8,·,·
CC(C)(C)c1ccc(C(=O)/C(C#N)=C/c2cccs2)cc1,0.645,4.0,-5.2,4.2%,2.1,i,21.4
O=C(COC(=O)Cc1ccc(Cl)cc1)Nc1ccc2[nH]c(=O)[nH]c2c1,0.699,2.2,?,4.0%,2.1,i,-20.6
Cc1ccc(S(=O)(=O)N/N=C/c2cccc3nccnc23)cc1,·,1.4,3.3,-4.1%,·,i,2.2
Cn1c(=O)c2c(ncn2CC(=O)N2CCN(C(=O)c3ccco3)CC2)n(C)c1=O,0.705,-0.1,0.3,4.2%,3.8,i,-0.4
COc1ccccc1N(C(=O)c1ccco1)C(C(=O)NC1CCCC1)c1cccnc1 (centres undefined),0.665,0.6,-0.3,-5.8%,-1.0,·,·
CC(=O)N(C1=C(O)c2ccccc2C(=O)C1=O)C1CCCCC1,0.716,-2.7,-1.4,-2.6%,4.9,i,-0.9
CSCC[C@H](N)C(=O)N1CCC(C(=O)N[C@@H](C)C(=O)NCc2ccc(F)cc2)CC1,0.725,8.1,1.7,·,2.1,i,-1.5
CC1CCCN(C(=O)CSCC(=O)N=c2sc3ccccc3n2C)C1 (centres undefined),0.704,-5.0,3.0,2.9%,5.3,·,·
CCOc1ccc(OCC)c(NC(=O)Cn2cccc2)c1,0.659,-0.9,1.7,2.5%,4.5,i,11.8
CCN(CC)C(=O)C1=C(C)Nc2ncnn2C1c1cccnc1 (centres undefined),0.715,1.1,-2.6,·,2.2,i,-1.5

# 3 entries drawn at random from the list so far, as already listed:
SMILES,Ecoli growth,HNF4A DNA FP,RanGTP-Impb inh,Vif TR-FRET,UCH37 DUB inh,FGF22 binding,MLL AF4-AF9 inh
Cc1ccc(S(=O)(=O)N/N=C/c2cccc3nccnc23)cc1,·,1.4,3.3,-4.1%,·,i,2.2
CC(C)(C)c1ccc(C(=O)/C(C#N)=C/c2cccs2)cc1,0.645,4.0,-5.2,4.2%,2.1,i,21.4
Cn1c(=O)c2c(ncn2CC(=O)N2CCN(C(=O)c3ccco3)CC2)n(C)c1=O,0.705,-0.1,0.3,4.2%,3.8,i,-0.4

# Not all compounds are listed; the hit share may differ from the screen's.
